# Screening results from PubChem BioAssay.
# Mtb bLac sens = beta-lactam sensitization of Mtb H37Rv. M. tuberculosis H37Rv growth with meropenem, percent inhibition; hits of this screen are not shown here. inhibition, % at 25 µM. actives 0.27% (n = 330,000);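 active = about 74% or more and at least 40 points above the plate without the antibiotic, then above 30% in a dose series; inconclusive = first-round hits that could not be retested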;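 note: growth measured after seven days incubation then overnight dye step; 0% = bacteria only wells and 100% = bacteria with antibiotic; twin plates without the antibiotic show which effects depend on it; some results filed as inactive read as strong as hits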
# Arbovirus anti = arbovirus infection inhibition. arbovirus infection cell-based antiviral screen. inhibition, % at 10 µM. actives 0.37% (n = 200,000);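 active = inhibition from about 30%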;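 note: bluetongue infection of BSR cells; cell survival read as ATP light after 72 h; 0% = infected wells without compound and 100% = uninfected wells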
# YopH PTP inh = inhibitors of Yersinia enterocolitica YopH tyrosine phosphatase; fluorescence Ex485/Em525; inhibition, %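 (about 10 µM by stock and volumes)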; actives 0.16% (n = 140,000);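 active = inhibition of 50% or more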;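 note: controls were vehicle for no effect and minimum signal wells for full effect; inactives centre near -20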
# Mtb growth = M. tuberculosis H37Rv growth inhibitors, H37Rv strain (AID 1626). inhibition, % at 10 µM, or IC50 in µM where a hit was titrated. actives 0.95% (n = 220,000). M. tuberculosis H37Rv growth inhibition; higher % means a stronger effect;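 active = confirmed in a dose series; inconclusive = inhibition above 80% but not taken into the dose series; inactive = below 80% or under 30% at every dose of the series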;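 note: bacteria incubated seven days before Alamar blue readout; 0% = bacteria only wells and 100% = bacteria with antibiotic wells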
# RecA splice inh = blocks M. tuberculosis RecA intein splicing. actives 0.75% (n = 290,000). inhibition, %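 (about 9 µM by stock and volumes)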. cell-free RecA intein splicing, fluorescence. P9WHJ3; in the data active = inhibition above about 30%; inconclusive = no clear call, values can overlap the other calls;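 note: 0% = vehicle wells and 100% = reference inhibitor control wells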
# Target sequence (P9WHJ3 whole entry, looked up, canonical isoform): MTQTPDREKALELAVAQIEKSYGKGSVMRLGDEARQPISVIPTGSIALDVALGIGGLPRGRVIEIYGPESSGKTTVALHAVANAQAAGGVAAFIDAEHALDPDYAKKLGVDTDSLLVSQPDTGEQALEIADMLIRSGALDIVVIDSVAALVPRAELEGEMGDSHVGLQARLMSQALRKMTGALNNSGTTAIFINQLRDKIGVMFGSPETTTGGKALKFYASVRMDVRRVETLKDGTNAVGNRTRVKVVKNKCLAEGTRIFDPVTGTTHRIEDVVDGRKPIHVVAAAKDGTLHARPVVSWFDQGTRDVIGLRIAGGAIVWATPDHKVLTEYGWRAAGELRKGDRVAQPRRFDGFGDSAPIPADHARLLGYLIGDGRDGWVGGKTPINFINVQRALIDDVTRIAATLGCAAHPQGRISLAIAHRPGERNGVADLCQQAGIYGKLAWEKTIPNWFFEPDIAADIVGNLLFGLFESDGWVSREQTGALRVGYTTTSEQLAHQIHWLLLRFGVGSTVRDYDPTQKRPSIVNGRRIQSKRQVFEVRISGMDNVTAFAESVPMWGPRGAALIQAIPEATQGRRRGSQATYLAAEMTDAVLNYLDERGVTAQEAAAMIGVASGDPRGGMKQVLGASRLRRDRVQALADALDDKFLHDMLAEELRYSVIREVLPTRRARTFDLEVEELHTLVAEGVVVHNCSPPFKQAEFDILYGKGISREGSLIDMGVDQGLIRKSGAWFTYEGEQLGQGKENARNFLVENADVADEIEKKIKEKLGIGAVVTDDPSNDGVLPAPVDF
# Arbovirus anti repeat = recorded beside Arbovirus anti, whose call it bears; inhibition, %; measured here: 10K subset replicate screen; many hits read low in the repeat;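 first of two repeat runs on a subset; 0% = infected and 100% = uninfected wells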
# Numbers without * were called inactive; ? = inconclusive; / = no result given.
SMILES,Mtb bLac sens,Arbovirus anti,YopH PTP inh,Mtb growth,RecA splice inh,others
CS(=O)(=O)N1CCC(C(=O)Nc2cccc(Br)c2)CC1,-3,/,/,/,-1.0,
COc1ccc(N(CC(=O)NCC2CCCO2)C(=O)CCC(=O)Nc2cc(C)on2)cc1OC (stereo unspecified),1,/,/,/,-0.3,
CCOC(=O)CSc1nnc(NC(=O)c2cccc(S(=O)(=O)N3CCCC3)c2)s1,76,3,-14,21%,-0.2,
Cc1cc(OCC(=O)N(C)Cc2ccccc2)cc(C)c1Cl,-3,/,/,/,7.1,
Cc1ccc(C)c(NC(=S)NCCc2c[nH]c3ccccc23)c1,-3,/,/,23%,3.9,
Cc1ccc(-c2nc3ccccc3o2)cc1NC(=S)NC(=O)/C=C/c1ccco1,/,-15,-30,6%,1.6,
CCOC(=O)c1c(C)[nH]c(C(=O)OCC(=O)N2CC(C)OC(C)C2)c1C (stereo unspecified),-3,4,-48,-6%,-0.6,
O=C1C=C(Nc2ccc(Cl)cc2Cl)CC(c2ccco2)C1 (stereo unspecified),-4,-7,/,2%,1.2,
O=C(COc1ccc2ccccc2c1CN1CCOCC1)N1CCc2ccccc21,3,-6,-4,-3%,2.1,
O=C(COC(=O)/C=C/c1cccs1)NC(c1ccccc1)c1ccccc1,-5,8,-5,-1%,-4.5,
COC(=O)c1ccc(OCC(O)CN2C(=O)c3ccccc3S2(=O)=O)cc1 (stereo unspecified),-4,21,/,2%,8.1,
COc1ccc(S(=O)(=O)NC(C)C(=O)NCc2cccnc2)cc1Cl (stereo unspecified),-10,/,/,/,-0.9,
Cc1cc(C)cc(OCC(=O)NNC(=O)c2cc(C)[nH]n2)c1,-1,9,-19,-9%,1.8,
COc1ccc(/C=N/NC(=O)c2ccoc2C)cc1COc1ccc(Cl)cc1,54,12,-14,11%,6.5,
CCN(CC)S(=O)(=O)c1ccc(C(=O)Nc2ccc(OCC(=O)N3CCOCC3)cc2)cc1,-20,-7,-43,-4%,0.3,Arbovirus anti repeat=2
CS(=O)(=O)c1ccc(Cl)c(NC(=O)c2cccc(-n3cnnn3)c2)c1,-10,/,/,/,-7.9,
CCOC(=O)CSc1nc2cc(C(=O)NCc3ccco3)ccc2c(=O)n1C1CCCCC1,-7,-26,-1,3%,0.5,
C[N+]1(C)[C@@H]2CC[C@H]1CC(OC(=O)C(c1ccccc1)c1ccccc1)C2 (stereo partly specified),?,/,/,/,-0.3,
COc1ccc(Nc2ncnc3ccc([N+](=O)[O-])cc23)c(OC)c1,-2,-3,/,0%,-0.2,
COc1ccc(N(C)C(=O)c2cn(CC(C)C)c(=O)c3cc(OC)c(OC)cc23)cc1,2,/,/,/,-1.5,
CC(C)(CNC(=O)c1cc(-c2ccc(Cl)s2)nc2ccccc12)N1CCOCC1,34,/,/,/,-1.8,
Cc1cc(NC(=O)CSc2nnc3c(C)cc4ccccc4n23)no1,-3,4,-18,-3%,-1.3,
O=C(O)c1ccc2c(=O)n3c(nc2c1)/C(=C/c1ccc(F)cc1)CC3,3,/,/,/,-9.6,
Cc1ccc(C)n1CCN1CCN(CC(=O)Nc2cc(C(F)(F)F)ccc2Cl)CC1,/,-10,-24,3%,9.6,
CCN1CCCC1CNC(=O)c1ccc2c(c1)N(Cc1cccc(Cl)c1)C(=O)c1ccccc1S2(=O)=O (stereo unspecified),-7,/,/,/,-2.6,
# More records.
SMILES,Mtb bLac sens,Arbovirus anti,YopH PTP inh,Mtb growth,RecA splice inh,others
COc1cc(OC)c(-c2sc(Nc3ccccc3)n[n+]2-c2ccc(F)cc2)cc1OC,-8,/,/,/,-2.3,
COC(=O)c1cc(OC)c(OC)cc1NC(=O)c1c(-c2ccccc2Cl)noc1C,-1,-5,-31,-4%,2.9,Arbovirus anti repeat=-8
CCC1(CC)NC(=O)N(CC(=O)OC(C)C(=O)Nc2cc([N+](=O)[O-])ccc2OC)C1=O (stereo unspecified),?,/,/,/,-3.6,
O=C(NCCNC(=O)c1cc(Cl)ccc1Cl)c1ccco1,-2,/,/,/,0.8,
COc1cc(CN2CC(=O)N(c3ccc(C)c(C)c3)C2=S)cc(OC)c1OC,-2,4,-22,-1%,-0.8,
CNc1ccc(NC(C)=O)cc1[N+](=O)[O-],4,2,-12,2%,0.1,
CC(=O)NC(CC(=O)c1ccc([N+](=O)[O-])cc1)C(Cl)(Cl)Cl (stereo unspecified),0,-15,3,-5%,-1.2,
CN(CCc1ccccn1)C(=O)CC1C(=O)NCCN1Cc1ccccc1C(F)(F)F (stereo unspecified),-13,5,/,5%,1.4,
COCC(=O)NCc1ccc2c(c1)OCO2,1,-1,37,-4%,-1.2,
CC1=NOC(=O)/C1=C/c1ccc(-c2ccc(Cl)cc2)o1,97,-45,-31,?,/,
CCCCCCCCn1cc(C(C)=O)c(=O)[nH]c1=O,1,2,-27,12%,0.6,
COc1ccnc(Oc2ccccc2)c1C(N)=O,-4,5,/,3%,/,
COc1cc(C2NC(=O)CCC2[N+](=O)[O-])c(OC)cc1Br (stereo unspecified),1,/,/,/,-1.9,
CCCC(=O)N1CC(=O)Nc2ccc(F)cc2C1c1ccccc1 (stereo unspecified),-11,6,-39,4%,3.3,Arbovirus anti repeat=-3
Cc1ccc(C(=O)Nc2ccncc2)cc1S(=O)(=O)N1CCOCC1,-9,/,/,/,-6.8,
O=[N+]([O-])c1cccc(/C=N\N2CCN(Cc3ccccc3Cl)CC2)c1,8,5,-12,/,9.0,
Nn1c(Nc2ccccc2)nc2ccccc2c1=O,-6,3,-43,-3%,-0.6,
COc1cc(NC(=O)c2ccno2)cc(C(=O)Nc2cccc(C(F)(F)F)c2)c1,45,/,/,9%,1.7,
Clc1ccc(OCc2nc(-c3ccncc3)no2)c(Br)c1,2,-30,-35,/,13,
Nn1c(SCc2cccc(F)c2)nnc1-c1cccnc1,2,/,/,-5%,0.5,
CN(C)/C=C/C(=O)c1cnc(-c2cccc(Cl)c2)s1,0,0,/,3%,0.7,
Cc1cccc(NC(=O)CCN2C(=O)C3C4C=CC(C4)C3C2=O)c1 (stereo unspecified),1,1,-17,3%,0.9,
O=C(CSc1nccn1-c1ccccc1)NO,-4,12,/,1%,-4.9,
COc1ccc2c(c1)C1OCCC1C(c1ccco1)N2 (stereo unspecified),-7,/,/,/,-2.3,
CNC(=S)NC1CC2CCCC(C1)N2Cc1ccccc1OC (stereo unspecified),-13,/,/,/,-1.2,
# Carrying on.
SMILES,Mtb bLac sens,Arbovirus anti,YopH PTP inh,Mtb growth,RecA splice inh,others
CC(C)c1ccc(CN2C(=O)NC3(CCCCCC3)C2=O)cc1,4,/,/,/,2.2,
CC(C)[C@H](NC(=O)OCc1ccccc1)C(=O)OCC(=O)NCCc1ccccc1,9,/,/,/,2.7,
CCC(Sc1ncccc1C(=O)OC(C)C)C(=O)N1CCOCC1 (stereo unspecified),0,0,1,-10%,-0.8,
CC(C)N(Cc1ccco1)/N=C/c1c(O)n(Cc2ccccc2)c(=O)[nH]c1=O,-4,/,/,4%,-0.1,
CN(C)c1ccnc2sc3c(SCc4ccc(Cl)cc4)ncnc3c12,21,-5,-8,1%,-2.9,
O=C(NC(=S)NCCO)c1sc2ccccc2c1Cl,-7,-2,/,-5%,1.0,
COc1cccc(C2CC(c3cccs3)=NN2S(C)(=O)=O)c1 (stereo unspecified),-9,8,/,2%,1.3,
CCc1cccc2c(C(=O)CSc3nnc(-c4ccoc4C)n3C)c[nH]c12,-9,-1,-1,-10%,4.4,
O=C1c2oc3ccccc3c(=O)c2C(c2cccc(F)c2)N1CCCO (stereo unspecified),-7,4,-58,8%,-1.1,
C=CCNC(=O)CSc1nnc(-c2ccccn2)n1Cc1ccccc1,3,-8,/,-3%,4.3,
Cc1cc(-c2nnc(-c3cccc(Cl)c3)o2)no1,4,/,/,-11%,0.1,
CCN(CC)C(=O)N1CCn2c(nc3ccccc32)C1,-14,10,31,-2%,0.4,
COc1ccc(NC(=O)c2cncn2-c2ccccc2)cc1,-3,/,/,/,-0.3,
CCCNC(=O)NCCc1ccncc1,?,3,-1,-6%,-1.7,
CCN(CC)S(=O)(=O)c1cccc(C(=O)N/N=C/c2ccc([N+](=O)[O-])o2)c1,100,2,/,?,1.8,
Cc1scc(C(=O)N/N=C/c2ccc(OC(C)C)cc2)c1C,-10,-4,-6,1%,2.1,
Cc1cccc(NS(=O)(=O)c2nnc(NC(=O)CC(C)C)s2)c1,-1,/,/,/,-2.2,
O=C(CCS(=O)(=O)c1cccc2nsnc12)NC1CCCCCC1,-7,4,22,-5%,-1.2,
Cc1c(Cl)cccc1NC(=O)Cc1ccc([N+](=O)[O-])cc1,2,-7,/,-2%,2.2,
CNC(=O)c1cc2cc(Cc3ccccc3Cl)ccc2oc1=O,-2,-2,/,8%,-0.5,
Cc1cc(C)c(S(=O)(=O)n2cnc3ccccc32)c(C)c1,-2,-3,-34,0%,0.2,
CCN(CC)CCCNc1nc(SC)nc2sc3c(c12)CCN(C)C3,4,/,/,/,-7.6,
NC(=O)c1ccc(NC(=O)CSC2=Nc3ccccc3C3CC=NN23)cc1 (stereo unspecified),19,-7,6,7%,-0.5,
CCOc1ccc2nc(NC(=O)CSc3nc(-c4ccccc4)c(C#N)c(=O)[nH]3)sc2c1,/,62*,/,>100µM*,1.9,
CC1(/[N+]([O-])=C/c2ccc(Cl)cc2Cl)CCCCC1=O (stereo unspecified),4,/,/,-2%,-4.5,

# A draw from above in order of heavy-atom count, lowest first.
SMILES,Mtb bLac sens,Arbovirus anti,YopH PTP inh,Mtb growth,RecA splice inh,others
CCCNC(=O)NCCc1ccncc1,?,3,-1,-6%,-1.7,
CC(C)c1ccc(CN2C(=O)NC3(CCCCCC3)C2=O)cc1,4,/,/,/,2.2,
CCN(CC)CCCNc1nc(SC)nc2sc3c(c12)CCN(C)C3,4,/,/,/,-7.6,
NC(=O)c1ccc(NC(=O)CSC2=Nc3ccccc3C3CC=NN23)cc1 (stereo unspecified),19,-7,6,7%,-0.5,
CC(C)[C@H](NC(=O)OCc1ccccc1)C(=O)OCC(=O)NCCc1ccccc1,9,/,/,/,2.7,

# (list continues)
SMILES,Mtb bLac sens,Arbovirus anti,YopH PTP inh,Mtb growth,RecA splice inh,others
CCCN(Cc1nnc(-c2ccccc2Cl)o1)C(=O)c1cc(S(=O)(=O)N2CCOCC2)ccc1F,-4,/,/,/,-0.3,
COc1ccc(NC(=S)N2CCC(NC(=O)c3ccc(OC)cc3)CC2)cc1,-5,/,/,/,-1.6,
Cc1cccc(-c2nc(=S)c3c(o2)CCCC3)c1,-2,0,-20,0%,6.9,
CC(C)CNc1cc(N2CCCC2)ccc1[N+](=O)[O-],2,-10,-31,5%,-0.9,
c1ccc2c(c1)N1CCCN=C1N2CCN1CCCCC1,-1,11,/,1%,0.5,
O=C(CCl)Nc1cccc(Oc2ccccc2)c1,95,-39,/,35%,65*,
NC1=NC(=O)/C(=C/c2cccc(F)c2)S1,1,/,/,/,-0.4,
O=C(Nc1nnc(SCc2ccc(F)cc2)s1)C1CC(=O)N(c2ccc3c(c2)OCCO3)C1 (stereo unspecified),24,-4,-14,10%,-3.9,
Cc1ccc(N2C(=O)CC(Sc3ncn[nH]3)C2=O)cc1C (stereo unspecified),3,3,5,4%,5.3,
Cc1onc(-c2ccc(Cl)cc2Cl)c1-c1csc(N/N=C/c2ccccc2Cl)n1,-3,/,/,4%,0.2,
O=C(Nc1nnc(-c2cccs2)o1)C1CC1,34,4,/,/,0.2,
CCOC(=O)C1CCN(c2cc(=O)n(Cc3ccc(F)cc3)c(=O)[nH]2)CC1,0,2,-17,9%,3.4,Arbovirus anti repeat=0
COc1ccc(COC(=O)C2=C(C)NC(=O)NC2c2ccccc2F)cc1 (stereo unspecified),-13,/,/,/,-6.3,
COc1ccc(C(=O)NNC(=O)c2snnc2C)cc1,0,/,/,0%,1.5,
CC(C)N1CCN(c2ccc(S(=O)(=O)N3CCOCC3)cn2)CC1,-14,/,/,/,-2.6,
Cc1ccc(CNC(=O)CSc2nc(C)cs2)cc1,-1,-4,/,-3%,-0.2,
CCCn1cnc2sc(C(N)=O)c(C)c2c1=O,-12,6,-3,-5%,0.9,
CCc1c(C)c(C#N)c2nc3ccccc3n2c1-n1nc(C)cc1C,-7,0,-22,-5%,-25,
CC(C)NS(=O)(=O)c1ccc(OCC(=O)NCc2ccccc2)cc1,-6,16,-33,2%,9.9,
Cc1ccccc1CC1(CO)CCCN(Cc2c(C)nn(C)c2Cl)C1 (stereo unspecified),-1,5,/,3%,1.0,
Cc1cc(C)n(-c2cc(N3CCN(S(=O)(=O)c4ccc(Br)cc4)CC3)ccc2[N+](=O)[O-])n1,-8,-3,-5,10%,3.3,
Cc1nc2ccccn2c1C(=O)N/N=C/c1ccc([N+](=O)[O-])o1,99,-9,/,-2%,11,

# Not all compounds are listed, so the mix of outcomes need not match the whole.
